Sa growth 42C – blocks Staphylococcus aureus growth; S. aureus RN4220 growth, OD600, 20 h, 42 °C; stronger effect = lower value; relative growth, % (concentration not given with the values); 170,000 tested, 0.53% active; AID 720641;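 active = growth at 42 °C up to 50% and 20 or more points under that at 30 °C, or under 10% at both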;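 note: 300 nL library stock went into each well; scaled to the means of positive and negative controls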
GIV-Gai inh – GIV-Galpha-i interaction inhibition; P08753; 210,000 tested, 0.42% active; Galpha-i3/FITC-GIV peptide fluorescence polarization, 90 min; stronger effect = lower value; scaled: aluminum fluoride 0%, vehicle 100%; percent of control (FP), % (concentration not given with the values);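 active = replicate mean at 85% of control or lower, very high polarization wells dropped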;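 note: wells of about 15 µL received 100 nL stock; the first replicate is given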
Target sequence (P08753 whole entry, looked up): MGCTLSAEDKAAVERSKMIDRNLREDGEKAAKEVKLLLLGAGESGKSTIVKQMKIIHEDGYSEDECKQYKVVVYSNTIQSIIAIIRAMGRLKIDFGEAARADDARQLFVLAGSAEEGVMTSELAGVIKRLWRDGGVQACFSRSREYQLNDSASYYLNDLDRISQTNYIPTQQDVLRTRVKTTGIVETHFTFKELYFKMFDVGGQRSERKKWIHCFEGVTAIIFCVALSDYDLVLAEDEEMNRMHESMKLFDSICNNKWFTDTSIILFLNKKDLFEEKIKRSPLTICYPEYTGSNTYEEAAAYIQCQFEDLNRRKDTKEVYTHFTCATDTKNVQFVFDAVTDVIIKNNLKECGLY
HCMV NEC inh – disrupts HCMV UL50-UL53 complex binding. 190,000 tested, 0.15% active. AID 1918969. HTRF UL50-UL53 interaction, normalized percent inhibition. inhibition, % (concentration not given with the values);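 active = both replicates at 50% or more, plus weaker picks with an unusually low signal ratio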;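 note: stock transfer was 100 nL into about 20 µL; 0% = negative control wells and 100% = wells with untagged competitor protein; inactives centre near -12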
Sa growth 42C second temp – second read-out of Sa growth 42C, no call of its own (marks repeat the call); relative growth, %; measured here: growth at 30 °C;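 optical density after 20 h as mean of two plates; 100% = untreated growth and lower means inhibition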
Active calls of the source: *; / = no result given; & = joins results of further samples.

Each structure is followed by: GIV-Gai inh	Sa growth 42C second temp	Sa growth 42C	HCMV NEC inh
1. CC(C)C(=O)OCC(=O)Nc1ccccc1C(=O)Nc1ccc2c(c1)OCO2
    /	87	94	-15
2. COc1cccc(-c2nn(Cc3nc(-c4cccc(Cl)c4)oc3C)c(=O)c3noc(C)c23)c1
    114	/	/	-18
3. O=S(=O)(NCc1nc2cccnc2n1Cc1ccccc1)c1ccc2c(c1)CCCC2
    110&111	107	109	/
4. CCN(CC)CCNc1ccc2nnc(-c3ccc(F)cc3)n2n1
    103	95	89	4
5. CCOC(=O)c1c(C)nc2c(c1-c1ccccc1)C(=O)CC(C)(C)C2
    /	73	139	-36
6. CCc1ccc2[nH]cc(S(=O)(=O)c3ccc(F)cc3)c(=O)c2c1
    105	/	/	-25
7. COc1cc(NC(=O)c2cnn3c2NC(c2cc(OC)c(OC)c(OC)c2)CC3C(F)(F)F)cc([N+](=O)[O-])c1 (stereo not drawn)
    93	/	/	-15
8. Cc1ccc(NC(=O)CSc2nnc3[nH]c(=O)cc(-c4ccccc4)n23)cc1Cl
    99	88	103	/
9. CCC(Sc1nc2ncccc2o1)C(=O)N(CC)c1ccccc1 (stereo not drawn)
    99	/	/	-28
10. CCN(C(=O)c1nn(-c2ccc(OC)c(Cl)c2)c(=O)c2c1c1ccccc1n2C)c1cc(OC)ccc1OC
    101	90	103	-22
11. COc1ccc2cc3cc(C(=O)N4CCN(Cc5ccccc5)CC4)oc3nc2c1
    92	75	78	-87
12. CCOc1ccc(NC(=O)C2CCCN(S(=O)(=O)c3cn(C)cn3)C2)cc1 (stereo not drawn)
    107	/	/	-5
13. N#C/C(=C(/O)c1ccco1)c1ccccn1
    /	91	104	-56
14. CCn1c(C2CCCO2)nc2ccccc21 (stereo not drawn)
    104	/	/	-7
15. CCOC(=O)COc1ccccc1C1Nc2ccccc2-c2nnc(SC)nc2O1 (stereo not drawn)
    105	/	/	-26
16. Cn1/c(=N/N)sc2ccccc21
    104	77	107	9
17. Cc1cccc(C)c1NC(=O)Cn1c(=O)n(CCC(=O)NCc2ccccc2Cl)c(=O)c2sccc21
    105	88	106	-13
18. Cc1cc(F)ccc1NC(=O)c1cc2sccc2n1Cc1ccc(Cl)cc1
    105	92	104	/
19. Cc1ccc(-n2ncc3c(NCCCN(C)C)ncnc32)cc1Cl
    108	88	117	/
20. CCCCCC1CC(=O)N(Cc2ccccc2)C(=O)N1 (stereo not drawn)
    107	92	96	-17
21. CCOC(=O)c1cnc2ccc(Cl)cc2c1NCCN(C)C
    101	86	110	-4
22. C=CCn1c(SCC(=O)NCc2ccccc2)nnc1-c1ccc2ncccc2c1
    96	75	97	-15
23. Cc1ccccc1OCCn1c(CCNC(=O)C(C)(C)C)nc2ccccc21
    101	57	110	-14
24. COc1ccc(-n2nnc3c(sc4nc(C)cc(C)c43)c2=O)cc1
    101	81	101	-6
25. O=C(NC(CO)c1ccccc1)c1ccc(Cl)cc1 (stereo not drawn)
    105	/	/	-1
26. CCc1nc2nc(C)cc(Nc3ccc(Br)cc3F)n2n1
    103	104	98	7
27. O=C(O)c1ccc(NS(=O)(=O)c2cc3c4c(cccc4c2)C(=O)NC3=O)cc1
    102	71	86	/
28. Cc1cc2c(cc1C)NC(c1cc(F)ccc1F)C1=C(CC(C)(C)CC1=O)N2 (stereo not drawn)
    95	/	/	-14
29. CCNc1ncnc2c1nnn2CC
    104	70	65	-6
30. N#CC1(C#N)[C@H](c2ccoc2)[C@@H](C(=O)Oc2ccccc2)N2c3ccccc3C=C[C@@H]21
    /	43	55	-27
31. CCCCCOc1ccccc1Cn1c(=O)oc2ccc(C)cc21
    99	75	77	0
32. CCOc1ccc(Nc2nc3c(S(=O)(=O)c4ccc(CC)cc4)nnn3c3ccc(Cl)cc23)cc1
    99	87	102	-33
33. CN(C)C(=O)CSc1nc(-c2ccccc2)cs1
    101	75	95	19
34. Cc1ccc(NC(=O)CCCn2c(=O)c3cccn3c3cccnc32)c(C)c1
    102	96	100	/
35. Cc1nn(-c2ccccc2)c(Cl)c1/C=C1\C(=O)N(C)c2ccccc21
    /	97	83	8
36. COc1ccccc1NC(=O)c1cccs1
    104	101	110	2
37. Cc1occc1C(=O)NN
    /	86	91	-7
38. CN(C)c1ccc(C(CNC(=O)Cc2ccc(Cl)cc2)N(C)C)cc1 (stereo not drawn)
    104	/	/	-22
39. O=C(CS(=O)(=O)c1cccc2nsnc12)Nc1ccccc1
    105	84	93	/
40. CN=C(C)/C(C(=O)OC)=C(/O)c1ccc(Cl)cc1
    105	98	104	-4

Part of the list above, with one line to a screen.
(32) CCOc1ccc(Nc2nc3c(S(=O)(=O)c4ccc(CC)cc4)nnn3c3ccc(Cl)cc23)cc1
(33) CN(C)C(=O)CSc1nc(-c2ccccc2)cs1
(34) Cc1ccc(NC(=O)CCCn2c(=O)c3cccn3c3cccnc32)c(C)c1
(35) Cc1nn(-c2ccccc2)c(Cl)c1/C=C1\C(=O)N(C)c2ccccc21
(36) COc1ccccc1NC(=O)c1cccs1

| Screen / compound no. | 32 | 33 | 34 | 35 | 36 |
| --- | --- | --- | --- | --- | --- |
| GIV-Gai inh | 99 | 101 | 102 | / | 104 |
| Sa growth 42C second temp | 87 | 75 | 96 | 97 | 101 |
| Sa growth 42C | 102 | 95 | 100 | 83 | 110 |
| HCMV NEC inh | -33 | 19 | / | 8 | 2 |

Carrying on.
Each structure is followed by: GIV-Gai inh	Sa growth 42C second temp	Sa growth 42C	HCMV NEC inh
41. CCCCN(Cc1ccco1)C(=O)Cn1ncc2c(=O)oc3ccc(C)cc3c21
    97	88	101	-32
42. Cc1ccc(S(=O)(=O)c2cn(Cc3ccccc3)c3cc(N4CCCCC4)c(F)cc3c2=O)cc1
    106	91	89	/
43. CCOc1ccccc1NC(=O)C1CCCN(S(=O)(=O)c2cc(-c3noc(C)n3)sc2C)C1 (stereo not drawn)
    112	/	/	-6
44. Cn1cc(S(=O)(=O)N2CCOCC2)cc1C(=O)N1CCN(c2ccccn2)CC1
    105	/	/	-12
45. CCNC(=O)c1ccc(-c2nc(CS(=O)c3ccc(C)cc3)c(C)o2)cc1 (stereo not drawn)
    102	104	102	6
46. CC(C)(C)C(=O)Cn1c(=O)n(CCCCCC(=O)NCc2ccc3c(c2)OCO3)c(=O)c2sccc21
    106	89	122	4
47. O=S(=O)(c1ccc2c(c1)CCCC2)N1CCNCC1
    /	95	100	-1
48. COc1cccc(NC(=O)C2CCN(S(=O)(=O)c3c(C)noc3/C=C/c3cccs3)CC2)c1
    101	85	107	-35
49. CC1CCN(c2nc3ncc4c(c3c(=O)[nH]2)CC(C)(C)CC4=O)CC1
    148	/	/	10
50. FC(F)(F)c1ccnc(N2CCN(Cc3cnc(-c4ccccc4)[nH]3)CC2)c1
    102	70	90	-10
51. Cn1nc(C(=O)NC2CCCC2)c2c1-c1cc(Cl)ccc1SC2
    105	/	/	7
52. CCOc1ncnc2sc3c(c12)CCCC3
    107	94	87	41
53. COc1cccc(C2=NN(C(=O)c3ccc(Cl)cc3)C(O)(C(F)(F)F)C2)c1 (stereo not drawn)
    103	/	/	-21
54. O=C(O)c1ccccc1C(=O)c1ccc(-c2ccccc2)cc1
    99	71	89	/
55. COc1ccccc1CNC(=O)Cn1nc(C)n2cccc2c1=O
    109	104	104	-12
56. O=C(CSc1nc(O)cc(=O)[nH]1)N1c2ccccc2CCc2ccccc21
    107	92	95	-7
57. COc1ccc(-c2nnc(-c3cc4ccccc4oc3=O)o2)cc1
    108	/	/	-18
58. O=C(NCCc1ccc(Cl)cc1)c1nc(-c2cccc(F)c2)n2c1CCCCC2
    100	100	103	/
59. CC(C)c1nn2c(=O)cc(COC(=O)CNC(=O)c3ccccc3Cl)nc2s1
    103	95	89	/
60. COc1cc(C(=O)Nc2nc3c(s2)Cc2c(Br)ccc(OC)c2-3)cc(OC)c1OC
    101	72	86	-1
61. O=C(Cn1ncn2c(cc3sccc32)c1=O)NC1CCCCCC1
    104	90	99	-2
62. COc1ccc(-c2nc(C(=O)N3CCCC3)nn2-c2ccccc2Cl)cc1
    103	/	/	0
63. Cn1cc(-c2cc(C(=O)O)on2)cn1
    103	89	90	-5
64. CCSc1nn(CC(=O)Nc2ccc(F)c(F)c2)c(N)c1S(=O)(=O)c1ccc(Cl)cc1
    104	/	/	-25
65. CCOc1ccc(CN(C(=O)c2nc(SC)ncc2Cl)C2CCS(=O)(=O)C2)cc1 (stereo not drawn)
    101	83	128	-13
66. CCOC(=O)N1CCC(N2CC34C=CC(O3)C(C(=O)Nc3ccc(C)cc3)C4C2=O)CC1 (stereo not drawn)
    111	92	106	0
67. O=C(Nc1ccc(S(=O)(=O)N2CCCC2)cc1)c1ccc(COc2ccc3c(c2)CCC3)cc1
    /	90	89	-4
68. N#C/C(N)=C(\C#N)N=Cc1ccc(Cl)cc1
    103	81	89	-26
69. CCOc1ccc(CNC(=O)C2Cc3ccccc3N2C(=O)CC)cc1 (stereo not drawn)
    100	90	102	/
70. Nc1c(-c2ccccc2)nc2ccccn12
    103	75	110	/
71. Cc1ccc2c(c1)OC=CC(C(=O)Nc1ncc(Cc3ccccc3F)s1)=C2
    101	/	/	-13
72. O=C(Cn1cnc2ccccc2c1=O)N1CCc2ccccc2C1
    /	97	98	0
73. O=C(CSc1nccc(=O)[nH]1)NCc1ccccc1
    100	89	101	10
74. O=C(NCc1cccn1Cc1ccccc1)Nc1ccc(Br)cc1F
    101	97	97	/
75. Cc1ccc(Cl)cc1-n1c(SCC(=O)NCc2ccccc2)nc2n[nH]c(C)c2c1=N
    106	77	133	/
76. Cc1nc(CC(=O)Nc2cccc(Cl)c2)cs1
    101	79	88	-17
77. CC(=O)Nc1ccccc1SCc1cc(=O)n2ccsc2n1
    101	90	95	-27
78. O=C1c2oc3ccccc3c(=O)c2C(c2ccc(Br)cc2)N1c1ccccn1 (stereo not drawn)
    102	94	96	/
79. CCNS(=O)(=O)c1ccc(NC(=O)Nc2cccc(C(F)(F)F)c2)cc1
    105	83	99	2
80. Cn1cccc1C=NN1CCN(C2c3ccccc3-c3ccccc32)CC1
    /	94	103	-10
81. CCc1ccc(C2CC(=O)c3c([nH]c(C(=O)OC4CCCC4)c3C)C2)cc1 (stereo not drawn)
    101	101	106	-10
82. CCc1ccc(CNC(=O)C2CCCN(c3nn4c(=O)cc(C)nc4s3)C2)cc1 (stereo not drawn)
    103	/	/	-9
83. COC(=O)Cn1c(=NC(=O)C(C)(C)C)sc2cc(S(N)(=O)=O)ccc21
    101	86	98	-13
84. COc1ccc(OCCN)cc1
    102	85	82	-13
85. NC(=O)COc1ccc(=O)n(-c2ccccc2)n1
    104	88	108	-20
86. COc1ccc(CCNC(=O)c2ccc3cc(-c4ccccc4)[nH]c3c2)cc1OC
    105	/	/	-29
87. CCOC(=O)c1[nH]c(C)c(S(=O)(=O)Nc2ccc(Br)cc2F)c1C
    108	/	/	-8
88. CCCn1c(=O)c2ccccc2n2c(=O)n(CC(=O)c3ccc(OCC)cc3)nc12
    99	/	/	-36
89. CC1=NN(c2ccccc2)C(C2=C(C)CCCC2(C)C)C1 (stereo not drawn)
    96	87	87	/
90. Cc1ccccc1C(=O)Nc1ccc2c(c1)NC(=O)CO2
    105	/	/	-1
91. CCOc1ccc(NC(=O)c2cc(S(=O)(=O)Nc3ccc(OCC)cc3)[nH]n2)cc1
    102	/	/	-3
92. CC(C)CN(CC(C)C)S(=O)(=O)c1ccc(Br)s1
    117	100	96	/
93. COC(=O)c1sccc1NC(=O)Nc1cn(C)c(=O)c2ccccc12
    103	88	91	-27
94. Cc1ccc(S(=O)(=O)Nc2ccc3[nH]c(=O)[nH]c3c2)c(C)c1
    95	/	/	-20
95. COc1cc(NC(=O)N2Cc3c(sc4c3CCN(C)C4)-n3cccc3C2c2ccc(F)cc2)cc(OC)c1 (stereo not drawn)
    109	/	/	-5
96. S=c1[nH]c2c(s1)C1c3ccccc3OCC1CS2 (stereo not drawn)
    115	33	37	-82
97. CC1(C)CC(=O)C2=C(C1)Nc1cc3c(cc1C2c1ccc(Cl)cc1)OCO3 (stereo not drawn)
    /	87	85	-7
98. O=C(O)C(Cc1ccccc1)n1cccc1 (stereo not drawn)
    102	90	106	-17
99. Cc1cc(C(F)(F)F)c2c(=O)[nH]c(=O)n(Cc3ccccc3)c2n1
    /	92	78	7

Some of these compounds in order of molar mass, lowest first.
Each structure is followed by: GIV-Gai inh	Sa growth 42C second temp	Sa growth 42C	HCMV NEC inh
90. Cc1ccccc1C(=O)Nc1ccc2c(c1)NC(=O)CO2
    105	/	/	-1
99. Cc1cc(C(F)(F)F)c2c(=O)[nH]c(=O)n(Cc3ccccc3)c2n1
    /	92	78	7
91. CCOc1ccc(NC(=O)c2cc(S(=O)(=O)Nc3ccc(OCC)cc3)[nH]n2)cc1
    102	/	/	-3

Screening data as filed in PubChem BioAssay.
